Screens (PubChem BioAssay)
Calb biofilm kill: mixture kills Candida albicans biofilm cells; C. albicans biofilm persisters + clotrimazole, fluorescence viability; primary screen in compound mixtures of four per well; inhibition, % at 7.6 µM; 120,000 tested, 0.02% active; AID 1242;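 active means inhibition above 30.3% in the primary screen of four-compound pools, then above 30% when the compound was retested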;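 further: compounds exposed to preformed 24 h biofilms for 48 h; the number belongs to the whole pool; some results filed as inactive read as strong as hits; inactives centre near 12; 0% = biofilm with clotrimazole alone and 100% = kill control; retested singly at about 60 µM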
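Test system: C. albicans biofilms. Buffer or medium: RPMI/MOPS medium, pH 7.0. Timing: 48 h compound exposure at 37 °C. Technique: Alamar Blue fluorescence. Evaluation: percent inhibition of biofilm viability.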
Active calls of the source: *. An excerpt. The share of hits here may be higher or lower than overall.

mol,Calb biofilm kill
COc1cc(C(=O)Nc2nc(C)c(Cc3ccc4c(c3)OCO4)s2)cc(OC)c1OC,7.4
Cn1cnc([N+](=O)[O-])c1S(=O)(=O)c1ccc(Cl)cc1,7.5
COC(=O)Cc1ccc(N(Cc2ccccc2F)S(=O)(=O)c2ccc(Br)cc2)cc1,3.2
O=C(Nc1ccc(Cl)cc1)/C(=C/c1ccc([N+](=O)[O-])cc1)c1nc2ccccc2s1,-0.1
Cc1csc(N)n1,17.4
CC(C)=CCCC(C)NC(=O)NC1CCCCC1 (stereo unspecified),3.3
CCOc1cccc(C(=O)Nc2ccc3oc(-c4cccnc4)nc3c2)c1,20.8
C/C(=N\NC(=S)NCc1ccccc1)c1cccc(Br)c1,8.0
Cc1oc2ccc(OC(=O)c3cccs3)cc2c1C(=O)OC(C)C,9.2
CCOc1ccccc1/C=C(/NC(=O)c1ccccc1)C(=O)N(CC)CC,17.0
CCOC(=O)/C(C#N)=C1\CC2CCC1(C)C2(C)C (stereo unspecified),16.9
FC(F)(F)c1cccc(CN2CCC(c3cc(-c4cccs4)n[nH]3)CC2)c1,9.3
COc1ccc(C2CC(c3cccs3)=NN2C(=O)c2ccco2)cc1OC (stereo unspecified),22.2
CNc1ccc2nnc(C(F)(F)C(F)(F)C(F)(F)F)n2n1,27.4
O=c1[nH]c(CS(=O)(=O)c2ccccc2)nc2ccccc12,5.7
COc1ccc(C(C[N+](=O)[O-])c2c(C)cc3ccccn23)cc1 (stereo unspecified),13.1
O=C(C(=O)N1CCN(c2ccccc2F)CC1)c1c[nH]c2ccccc12,16.0
N#CC(C#N)=Cc1ccccc1OCc1ccccc1,30.5
COc1cccc(C(=O)NC(=O)Nc2cc(C)on2)c1,15.7
CCCCC[n+]1ccn(-c2nc3ccccc3nc2[N-]S(=O)(=O)c2ccccc2)c1,10.8
COc1cc(Cl)c(C)cc1NC(=O)c1ccc(NS(=O)(=O)c2ccc(F)c(F)c2)cc1,-19.6
COc1ccc2cc(C(=O)C3CCCN(C(=O)CSc4nnc(C)o4)C3)ccc2c1 (stereo unspecified),10.0
OCCC1CN(Cc2cnc(-c3ccccc3)s2)CCN1C1CCCC1 (stereo unspecified),29.6
COC(=O)c1cc(Cl)nc2ccccc12,15.9
COc1ccc(N2CC(C(=O)Nc3nc4ccccc4s3)CC2=O)cc1 (stereo unspecified),9.4
O=C(Nc1ccc(NC(=O)c2ccco2)cc1)c1ccc2c(c1)OCCO2,23.6
O=C(CSCc1ccc([N+](=O)[O-])cc1)N/N=C/c1cccnc1,0.4
CC1CCCC(C)N1S(=O)(=O)c1ccc(S(=O)(=O)NCCc2ccncc2)cc1 (stereo unspecified),3.8
Cc1c(NC(=O)C(=O)/C=C(\O)c2ccc(Br)cc2)c(=O)n(-c2ccccc2)n1C,13.3
COC(=O)c1ccc(Nc2nnc(-c3ccc(C)c(S(=O)(=O)NCC4CCCO4)c3)c3ccccc23)cc1 (stereo unspecified),2.2
Cc1ccc(NC(=O)Cn2nnc3ccccc3c2=O)cc1,6.0
CCc1c(C)nc2ncnn2c1NCCc1ccc(Cl)cc1,10.8
C#Cc1ccc([C@@H]2C=C(C(=O)N3CCN(Cc4ccc5c(c4)OCO5)CC3)O[C@H](OCCCCO)C2)cc1,17.0
COc1ccc(CC(NC(C)=O)C(=O)N2CCN(C(=O)Nc3cccc(F)c3)CC2)cc1OC (stereo unspecified),24.5
CCC/C=N/NC(=O)c1[nH]c2c([N+](=O)[O-])cccc2c1C,11.7
CCCN(CCC)CCCNC(=O)c1cc2c(=O)[nH]c3ccccc3c2n1C,10.2
CN1CCN(c2ccc(NC(=O)CN3CCOCC3)cc2F)CC1,7.5
COC(=O)c1ccc(C2/C(=C(\O)c3cccc(OC)c3)C(=O)C(=O)N2CCCN(C)C)cc1 (stereo unspecified),12.2
CCCCN(C(=O)CN1CC(C)OC(C)C1)c1c(N)n(CC(C)C)c(=O)[nH]c1=O (stereo unspecified),10.3
COc1cccc(CC2(CO)CCCN(Cc3ccc(CO)o3)C2)c1 (stereo unspecified),11.5
COc1ccc(/C=C/C(=O)NC(=S)Nc2cc([N+](=O)[O-])ccc2O)cc1OC,-1.0
CCC(=O)Nc1ccc2ccccc2c1,5.9
O=C(c1cccs1)N1CCN=C1SCc1ccc(F)cc1,22.2
NC(=O)CSc1nnc(-c2cnccn2)n1Cc1ccco1,24.4
COc1ccc(OC)c(NC(=O)N[C@H](Cc2ccccc2)C(=O)NN)c1,12.1
CCCNC(=O)COC(=O)CCC(=O)c1cccs1,13.7
O=C(NN1C(=O)CSC1=S)C(=O)NN1C(=O)CSC1=S,2.5
CCN(C(=O)COC(=O)c1cc(NS(=O)(=O)c2ccc(Cl)c([N+](=O)[O-])c2)ccc1O)C1CCCCC1,20.4
O=C(c1cccnc1)n1nc(NCc2ccccc2)nc1NCc1ccccc1,14.3
COc1cccc(NC(=O)c2ccccc2-c2ccccc2)c1,44.2
NS(=O)(=O)c1ccc(CCNC(=O)C2CCC(CNS(=O)(=O)c3ccc(Br)s3)CC2)cc1 (stereo unspecified),-0.9
Cc1ccc(C2N(c3ccccc3)C(=O)N3CCCN23)cc1 (stereo unspecified),3.2
COc1cc(CNc2ccc(O)cc2)cc(Br)c1OCc1ccccc1F,21.1
CC(C)OP(=O)(c1ccc(N(C)C)cc1)C(O)c1cccnc1 (stereo unspecified),13.9
CC1=C(C(=O)Nc2ccccc2F)C(c2ccsc2)C2=C(CC(C)(C)CC2=O)N1 (stereo unspecified),18.5
CCOc1ccccc1N1CCN(C(=O)c2csc(C)c2CC)CC1,-0.3

In the list so far, two contain an aryl thioether with sulfur outside any ring:
mol,Calb biofilm kill
COc1ccc2cc(C(=O)C3CCCN(C(=O)CSc4nnc(C)o4)C3)ccc2c1 (stereo unspecified),10.0
NC(=O)CSc1nnc(-c2cnccn2)n1Cc1ccco1,24.4

More entries:
mol,Calb biofilm kill
Cc1cc(NC(=O)CSc2nc3cc(Cl)ccc3c(=O)n2Cc2ccco2)no1,13.9
COc1ccc(C(=O)COC(=O)C2CCC(=O)N2)cc1 (stereo unspecified),-5.2
Cc1ccc(-n2nc(C)c(=O)c(-c3ccccc3)c2NC(=O)C(C)C)cc1,18.2
O=C(NCCC1=CCCCC1)C(=O)c1c[nH]c2ccccc12,2.7
COc1cccc(CN(C)c2nc(-c3cccs3)nc3ccccc23)c1,15.6
NC(=O)c1ccccc1O,6.5
N#Cc1c(Cl)nsc1NN,4.7
Cc1cc(C(=O)COC(=O)C23CC4CC(CC(O)(C4)C2)C3)c(C)n1-c1c(C)n(C)n(-c2ccccc2)c1=O,12.3
Cn1c(N)c(C(=O)COC(=O)CNS(=O)(=O)c2cccc(Cl)c2)c(=O)n(C)c1=O,3.8
CC(C)OCCCN(CC(O)c1ccccc1)CC(O)c1ccccc1 (stereo unspecified),5.9
CCCn1nc(Oc2nc(NC(C)C)nc(N(C)C)n2)ccc1=O,4.1
Cc1cc(C(=O)N/N=C/c2ccc(-c3cccc(Cl)c3Cl)o2)n[nH]1,14.4
O=c1oc2ccccc2cc1-c1csc(NN=C2CCCC2)n1,14.3
CCc1nc(SCC(=O)O)c(C#N)c2c1CCCC2,17.5
CCCNC(=O)C1CCN(S(=O)(=O)c2cccc3nonc23)CC1,16.4
O=C(NCCc1c[nH]c2ccccc12)C(=O)NCC(c1ccco1)N1CCN(c2ccc(F)cc2)CC1 (stereo unspecified),21.5
COCCN1Cc2cc3cc(C)ccc3nc2SC1=Nc1cccc(OC)c1,10.0
COc1cccc(/C=C2\SC(=S)N(NC(=O)c3ccncc3)C2=O)c1,0.2
CC/C(=C/c1sc2ccccc2[n+]1CC)SC,20.3
Cc1cccc(C(=O)OCC(=O)NCCCc2ccccc2)c1,1.7
O=C(CCc1nc2ccccc2[nH]1)N1CCc2ccccc2C1,3.6
CCCCCCOC(=O)c1ccc(N)cc1,10.7
COc1ccc(N2CCC(CNC(=S)Nc3c(C)cc(C)cc3C)C2)cc1 (stereo unspecified),21.5
Cc1cccc(CSc2ccc3nnc(-c4cccs4)n3n2)c1,5.5
Cc1ccc(S(=O)(=O)NCCCCCC(=O)Nc2cccc(C)c2)cc1,14.0
CCOC(=O)c1ccc(NC(=S)N2CCCC(C(=O)OCC)C2)cc1 (stereo unspecified),9.0
CSc1ccccc1C(=O)Nc1cccc([N+](=O)[O-])c1,19.1
O=C(Nc1ncn[nH]1)c1ccc(Cl)c(S(=O)(=O)Nc2ccc(Cl)cc2)c1,13.8
Nn1c(-c2ccccc2)nc2ccccc2c1=O,14.5
COc1ccc(NC(=O)Nc2cc(F)ccc2C)cc1,4.6
COc1ccc(S(=O)(=O)Nc2ccc3c(c2)CCC3)cc1,5.4
O=C(C1CCN(S(=O)(=O)c2cccs2)CC1)N(c1ccccn1)C1CCCCC1,18.3
Clc1nnc(NN=C2CCCC2)c2ccccc12,18.3
Oc1ccc(O)c(Cc2nc3ccccc3s2)c1,-3.9
CC(C)c1ccc(NC(=O)C(c2ccccc2)N(C)C(=O)c2cnccn2)cc1 (stereo unspecified),21.6
O=C(O)c1ccc2nc(-c3ccccc3)c(-c3ccccc3)nc2c1,3.1
Cc1ccc(OCc2ccc(C(=O)O)o2)c([N+](=O)[O-])c1,8.4
CCCC(=O)OCCNc1cc(Sc2nc3ccccc3[nH]2)c2nonc2c1[N+](=O)[O-],8.5
CCOC(=O)Cc1cc(=O)c2cc(C)ccc2[nH]1,14.6
Cc1ccc(/C=C/C(=O)N2CCCC(C)C2)cc1 (stereo unspecified),7.5
O=C(O)C1C(c2ccccc2)C(C(=O)OCc2ccco2)C1c1ccccc1 (stereo unspecified),4.4
Cc1ccc(C(=O)Nc2cccc(C(F)(F)F)c2)cc1Nc1ccccn1,12.5
CC(C)NC(=O)NC(=O)CSc1ccccc1F,24.0
C=CCS(=O)(=O)c1cccc2cccnc12,23.0
COc1ccc(C(=O)NC(=S)Nc2cccnc2)cc1OC,12.6
O=C(Nc1ccc(NC(=O)c2cccs2)c(Cl)c1)c1ccco1,22.3
Cc1cccc(Nc2nc(N)c([N+](=O)[O-])c(N3CCC(C)CC3)n2)c1,5.0
CNC(=O)c1ccsc1NC(=O)c1sc2ccccc2c1Cl,8.3
O=[N+]([O-])c1ccc(C[n+]2cccc3ccccc32)cc1,-6.9
O=C1/C(=C/c2ccc(F)cc2)SC(=S)N1N1CCOCC1,20.5
COc1ccc(C(=O)OCC(=O)NC2CC2)cc1S(=O)(=O)N1CCOCC1,1.3
O=C(NNc1nc(N2CCOCC2)nc(N2CCOCC2)n1)Nc1ccc(Cl)cc1,14.1
Cc1ccc(-c2csc3ncnc(Nc4ccc(C(=O)O)cc4)c23)cc1,23.8
O=C(Nc1nc(-c2ccc(F)c(F)c2)cs1)c1ccc(OCC2CCCO2)cc1 (stereo unspecified),6.5
CN(C)C(=O)c1ccc(Cl)cc1[N+](=O)[O-],19.8
CSc1cccc(NC(=S)N2CCC(N(C)C(C)C)CC2)c1,13.7

Carrying on:
mol,Calb biofilm kill
CCn1ncc(Br)c1C(=O)Nc1ncc(C)s1,14.1
CCOC(=O)c1c[nH]c2nc(C)ccc2c1=O,12.1
CN(C)c1ccc(P(=O)(COc2ccc([N+](=O)[O-])cc2)c2ccc(N(C)C)cc2)cc1,4.0
CSC1=NCCN1S(=O)(=O)c1ccc(Cl)cc1,0.2
Nc1ccccc1-c1nnc(-c2ccccc2N)n1N,20.3
Cc1nc(-c2ccc([N+](=O)[O-])cc2)sc1C(=O)O,19.6
CC(=O)Nc1ccc(/C=C/C(=O)c2ccccc2)cc1,5.7
O=S(=O)(c1ccc(S(=O)(=O)N2CCOCC2)cc1)N1CCCC1,21.2
COCCCNCC(O)COc1cccc2[nH]c(C)cc12 (stereo unspecified),12.0
Cc1cc(C(=O)COc2ccccc2C(N)=O)c(C)n1C,1.5
Cc1c(Cl)c([N+](=O)[O-])nn1CCCC(=O)NC(C)c1ccccc1 (stereo unspecified),8.1
CC(=O)Nc1cc(NC(C)=O)cc(-c2nc3ccccc3[nH]2)c1,18.6
O=C(N/N=C/c1cc2cc3c(cc2nc1Cl)OCCO3)c1ccccc1O,12.4
CC(NC(=O)CSc1ncccn1)c1ccc(Cl)cc1Cl (stereo unspecified),5.7
Cc1ccc(-c2nnn(CC(=O)N(CCO)C(C(=O)NC3CCCC3)c3ccc(F)cc3)n2)o1 (stereo unspecified),11.6
CC(C)CC1c2[nH]c3ccccc3c2CCN1C(=O)CCC(=O)N(C)C (stereo unspecified),8.7
O=C(CCCN1C(=O)c2cccc3cccc(c23)C1=O)NCc1cccnc1,13.3
CCc1ccc(Nc2cnn(-c3nc4ccccc4s3)c(=O)c2Cl)cc1,-3.4
COc1ccc(-n2c(C)nc(N)c2C(=O)c2ccccc2)cc1,17.4
Nn1cnnc1SCC(=O)Nc1ccc2c(c1)OCO2,15.8
COC(=O)[C@@H]1C[C@H]2CC[C@H](O)C[C@H]2N1Cc1ccc(C)s1,9.9
CC(=O)N1CC(C)c2scc(C)[n+]2-c2ccccc21 (stereo unspecified),10.7
Cc1cc(=O)[nH]c(N/N=C/c2ccc(OC(=O)c3cccnc3)cc2)n1,1.4

Retrieved one by one from the entries so far, 2 records:
mol,Calb biofilm kill
O=C(CCCN1C(=O)c2cccc3cccc(c23)C1=O)NCc1cccnc1,13.3
COC(=O)[C@@H]1C[C@H]2CC[C@H](O)C[C@H]2N1Cc1ccc(C)s1,9.9
